Screens (PubChem BioAssay)
BJeLR lethal – MLPCN primary cell-based screen for lethality selective to Ras in HRASV12 cells; BJeLR (HRASV12) viability, CellTiter-Glo ATP luminescence, 48 h; reference of the scale not given here; inhibition, % (concentration not given with the values); AID 1554, 2009; actives 0.17% (n = 300,000);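 active = replicate mean above 50%; inconclusive = above 50% but judged a plate artefact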;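 also: 50 nL library stock added to about 25 µL; numbers are from one replicate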
PrP UTR inh – inhibition of PrP 5' UTR reporter expression; cell-based PrP 5' UTR mRNA reporter, plate reader; inhibition, % (test concentration not listed); actives 0.35% (n = 340,000);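 active = every replicate at 50% or more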;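 also: 0 = median of the neutral control wells; tested in H4 reporter cells; numbers are from one replicate; inactives centre near -14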
Autofluor counter – flagged as autofluorescent in microsphere protease counterscreen; actives 3.1% (n = 360,000); fluorescence intensity (test concentration not listed); AID 624483; compound autofluorescence counterscreen, microsphere flow cytometry; stronger effect = higher value;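 active = at least 3 SD above the mean of all compounds, about 16000 in these data; inconclusive = too few beads counted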;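 also: 100 nL of 1 mM stock went into each well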
Mtb hypoxia inh – PubChem AID 1159583; actives 0.1% (n = 300,000); fluorescence inhibition, % (test concentration not listed); M. tuberculosis hypoxia-regulated fluorescent reporter, fluorescence;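 active = 35 to 45% if threefold the growth effect, above 45% if 1.5-fold the growth effect; inactive = the rest, general growth blockers included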;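 also: wells of about 50 µL received 100 nL stock; 0% = vehicle wells and 100% = reference inhibitor wells; whole bacteria with a GFP reporter of the hypoxia response; strong numbers were not always called active; many hits fall short of the cut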
ugtP null kill – growth inhibition of ugtP-null S. aureus, primary screen, RN4220 ugtP deletion, OD600; actives 0.54% (n = 330,000); growth inhibition, % (concentration not given with the values); 16 h; some inactives read as strong as hits;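 active = z-score under -3 and OD600 up to 0.15 on both plates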;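 also: plate controls were untreated wells for no effect and antibiotic for full effect; wells of about 80 µL received 100 nL stock; the first replicate is given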
RN4220 kill – growth inhibition of S. aureus RN4220, primary screen, OD600; 16 h; AID 1259311, 2017; inhibition, % (test concentration not listed); actives 0.33% (n = 330,000);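 active = z-score of -3 or lower and OD600 up to 0.18 on both plates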;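 also: plate controls were untreated cells for no effect and reference antibiotic for full effect; stock transfer was 100 nL into about 80 µL; one replicate is shown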
Mtb hypoxia inh growth – also measured in Mtb hypoxia inh; calls as there; growth inhibition, %; measured here: M. tuberculosis growth (absorbance);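 0% = vehicle and 100% = reference antibiotic; read after six days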
* = called active by the depositor; ? = inconclusive; . = no result given; & = joins results of further samples.

SMILES | BJeLR lethal | PrP UTR inh | Autofluor counter | Mtb hypoxia inh | Mtb hypoxia inh growth | ugtP null kill | RN4220 kill
CCOC(=O)N1CCc2c(sc(NC(=O)Cc3ccccc3)c2C(=O)c2ccc(OC)cc2)C1 | -4 | -22 | 4450 | -3 | 9 | -1 | 1.6
COC(=O)c1cccc(Nc2nc3ccccc3nc2C)c1 | -3 | -12 | 2630 | 24 | -16 | -15 | -14
CCCN(c1ccc(OCC)cc1)c1ncnc2nc[nH]c12 | 10 | -11 | 6839 | 7 | 8 | 14 | 4.3
O=C(N/N=C/c1cccc([N+](=O)[O-])c1)c1ccc(Br)cc1 | -19 | -35 | 4700 | . | . | . | .
COc1cc(OC)c(S(=O)(=O)N2CCN(C(=O)c3ccco3)CC2)cc1NC(C)=O | 0 | -19 | 3720 | 0 | 0 | 8 | 0.8
O=C(CSc1nnnn1C1CCCCC1)NCc1ccc2c(c1)OCO2 | 4 | -22 | 7097 | 7 | 5 | 2 | 3.5
Cc1ccc2c(c1)C(=O)C(=O)N2Cc1ccc(Cl)cc1 | . | -21 | 3500 | 1 | 2 | -1 | 7.3
CCOc1ccc(-c2onc(C(F)(F)F)c2-c2cscn2)c(O)c1 | -8 | . | 10359 | 14 | 9 | 5 | 0.1
Cn1cccc1/C=C(/C#N)C(N)=S | -13 | -46 | 9906 | 16 | 9 | 19 | 2.1
COC(=O)c1ccccc1NC(=O)C12CCC(C)(C(=O)O1)C2(C)C (stereo not given) | -5 | -26 | 8956 | 1 | 8 | 3 | 4.1
Cc1cc(C(=O)NC2CCCC2)on1 | -3 | -8 | 5839 | 7 | 8 | 10 | 7.3
O=C(O)CCC(=O)NCCn1c(-c2ccccc2)csc1=Nc1ccccc1 | 5 | -24&0 | 3926&12454 | 9&5 | 8&8 | 5&0 | 3.9&5.3
O/N=C\c1cccn1-c1ccc(Br)cc1 | -6 | 0 | 2576 | . | . | . | .
CS(=O)(=O)N1CCC(C(=O)Nc2cccc(C(F)(F)F)c2)CC1 | -3 | -19 | 5053 | 13 | 3 | -1 | -3.4
COc1ccc(C(C)=O)cc1COc1cc(C)c(Cl)c(C)c1 | -11 | 2 | 3921 | 11 | -5 | 6 | 3.6
O=C(N/N=C/c1ccncc1)c1ccccc1OCc1ccc(Br)cc1 | 0 | -24 | 2153 | . | . | . | .
COC(=O)NN=Cc1ccc(-c2cc(Cl)ccc2Cl)o1 | . | . | . | 11 | 2 | -1 | 8.3
CC(C)(C)c1cc(C(=O)N/N=C/c2ccccc2O)n(-c2ccccc2)n1 | 1 | 23 | 2212 | . | . | . | .
O=S(=O)(N[C@H](CO)Cc1ccccc1)c1ccc(Br)cc1F | . | -10 | 2884 | -5 | -2 | 8 | 4.1
Nc1nc(SCC(=O)Nc2ccc(Cl)cn2)n[nH]1 | -8 | 13 | 4382 | -2 | 1 | 3 | 2.2

Of the compounds above, 2 have an NH in an aromatic ring:
SMILES | BJeLR lethal | PrP UTR inh | Autofluor counter | Mtb hypoxia inh | Mtb hypoxia inh growth | ugtP null kill | RN4220 kill
CCCN(c1ccc(OCC)cc1)c1ncnc2nc[nH]c12 | 10 | -11 | 6839 | 7 | 8 | 14 | 4.3
Nc1nc(SCC(=O)Nc2ccc(Cl)cn2)n[nH]1 | -8 | 13 | 4382 | -2 | 1 | 3 | 2.2

(next part)
SMILES | BJeLR lethal | PrP UTR inh | Autofluor counter | Mtb hypoxia inh | Mtb hypoxia inh growth | ugtP null kill | RN4220 kill
COCC1=C(C(=O)OC(C)OC(=O)OC(C)C)N2C(=O)C(NC(=O)C(=NOC)c3csc(N)n3)C2SC1 (stereo not given) | . | . | . | 4 | 4 | 43 | 68
Cn1c(=O)cc2c3c(c(N4CCCCC4)ccc31)C(=O)c1ccccc1-2 | 6 | . | 4182 | 8 | 0 | -7 | 4.2
CCOC(=O)c1c(-c2ccccc2)nc2ccc(Cl)cn12 | 1 | -23 | 8521 | . | . | -2 | 5.8
CCCCN1C(C)=CC(=C2C(=O)c3ccccc3C2=O)C=C1C | 5 | 9 | 4683 | 9 | 4 | 1 | 5.7
O=C(N/N=C/c1ccncc1)C12CC3CC(CC(C3)C1)C2 | 9 | -4 | 3211 | . | . | . | .
CCn1c(SCC(=O)NCCc2ccccc2)nnc1-c1cccs1 | -16 | 3 | 4607 | 3 | 3 | 1 | -1.1
COC(=O)c1cc(NC(=O)Nc2cccc(Cl)c2)ccc1Cl | 3 | -24 | 9666 | 7 | 5 | 80 | 72
N#Cc1ccc(OCCOCCNC2CCCC2)cc1 | -9 | -13 | 2688 | 5 | -11 | -18 | -3.7
CCc1ccccc1NC(=O)/C(C#N)=C\c1ccc(Sc2ccccc2)o1 | -12 | -16 | 8353 | 2 | -9 | -26 | -0.6
O=C(Cc1ccc(F)cc1)N1CCN(c2ccc([N+](=O)[O-])cc2)CC1 | 0 | -18 | 3635 | 6 | -6 | 5 | 1.1
CCCCN(C)C(=O)CC(NS(=O)(=O)c1ccc(NC(C)=O)cc1)C(C)C (stereo not given) | 1 | -27 | 4314 | 13 | 6 | 7 | 5.0
COc1ccc(S(=O)(=O)NCC2CCC(C(=O)N3CCC4(CC3)OCCO4)CC2)cc1 (stereo not given) | 3 | -7 | 4841 | . | . | -6 | -1.5
CCCn1c(SCC(N)=O)nnc1-c1ccco1 | -7 | -25 | 3419 | . | . | 10 | 2.0
CC(=O)c1ccc(-n2c(C)c(C(C)=O)c3cc(O)ccc32)cc1 | 3 | 13 | 4017 | 1 | -9 | 0 | 2.2
CCOC(=O)c1c(N)sn(-c2ccccc2)c1=S | 1 | -22 | 2605 | 13 | 8 | 3 | 4.9
CN(Cc1ccccc1)C(=O)Nc1ccc(Cl)cc1 | -2 | . | . | 9 | 2 | 10 | 0.0
CNc1nc(-c2c[nH]c3ccccc23)cs1 | -6 | -28 | 1655 | . | . | -13 | 7.7
COc1ccc(N(CC(=O)NCc2ccc(F)cc2)C(=O)Cn2nnc(-c3ccc(C)o3)n2)cc1OC | -6 | -22 | 3716 | -4 | -4 | 10 | 1.1
c1cc(-c2cn(C[C@H]3CC[C@@H]([C@@H]4CC[C@H](Cn5cc(-c6ccsc6)nn5)O4)O3)nn2)cs1 | 4 | 6 | 2894 | . | . | . | .
O=[N+]([O-])c1cc2c(cc1C=Nn1c(-c3ccccc3)n[nH]c1=S)OCO2 | . | . | . | 1 | 1 | 4 | -6.1

Single records, as listed above. Order of screens: BJeLR lethal, PrP UTR inh, Autofluor counter, Mtb hypoxia inh, Mtb hypoxia inh growth, ugtP null kill, RN4220 kill
Shown for COC(=O)NN=Cc1ccc(-c2cc(Cl)ccc2Cl)o1 → ., ., ., 11, 2, -1, 8.3
Shown for CC(=O)c1ccc(-n2c(C)c(C(C)=O)c3cc(O)ccc32)cc1 → 3, 13, 4017, 1, -9, 0, 2.2

(list continues)
SMILES | BJeLR lethal | PrP UTR inh | Autofluor counter | Mtb hypoxia inh | Mtb hypoxia inh growth | ugtP null kill | RN4220 kill
CCOc1ncccc1C(=O)Nc1nc(C(C)(C)C)cs1 | 4 | -3 | 3976 | 0 | 3 | 19 | -0.7
COc1ccccc1CC(=O)Nc1ccc(S(=O)(=O)N2CCCCC2)cc1 | -14 | -17 | 4278 | 17 | 6 | 1 | 1.1
COc1ccccc1NS(=O)(=O)c1ccc2oc(SCc3ccc(C#N)cc3)nc2c1 | 0 | -14 | 3003 | -1 | 1 | -1 | 0.0
O=C(CSc1nnc(SCc2ccc(Cl)cc2)s1)NN=Cc1c[nH]c2ccccc12 | . | . | . | 4 | -7 | -8 | 5.1
N#C/C(=C\c1ccco1)c1nc2ccccc2s1 | 16 | -115 | 3044 | 18 | 9 | 12 | 8.4
COc1cc(Cl)ccc1OCc1cc(C(=O)NC2CCc3ccccc32)no1 (stereo not given) | -3 | -6 | 4969 | 0 | 10 | 0 | 0.6
Cc1ccc(/C=C2/SC(=S)N(CCC(=O)NCCCN3CCOCC3)C2=O)cc1 | 5 | -12 | 6142 | . | . | . | .
CN1C(=O)c2ccc(C(=O)NC3CCCCC3)cc2C1=O | 8 | -11 | 4443 | . | . | 4 | -0.5
Cc1cc(NC(=O)CSCC(=O)OCC(=O)c2cccc(Br)c2)no1 | . | -12 | 4164 | 6 | -6 | 4 | 2.9
CCn1c(=O)c(C(=O)Nc2cccnc2)c(O)c2ccccc21 | . | -13 | 6137 | -3 | -9 | 0 | 5.2
COc1cccc(C(=O)NC(=S)Nn2cnnc2)c1OC | 5 | -6 | 4019 | -4 | 8 | 3 | 3.3
CCC(=O)Nc1ccc(N2CCN(Cc3ccccc3F)CC2)cc1 | -1 | 0 | ? | 3 | -2 | 12 | 7.7
O=C(CN1C(=O)NC2(CCCC2)C1=O)Nc1ccc(S(=O)(=O)N2CCOCC2)cc1 | 0 | -31 | 4375 | . | . | . | .
CC1CCCCN1S(=O)(=O)c1ccc(NC(=O)c2cccs2)cc1 (stereo not given) | 2 | -22 | 10623 | 4 | 2 | -14 | 4.1
CCCCNC(=O)CCc1c(C)nc2c(c(C)nn2-c2ccccc2)c1C | -2 | -5 | 2953 | 7 | 0 | -1 | 1.9
O=C(N/N=C/c1c(O)n(Cc2ccccc2)c(=O)c2ccccc12)c1cccnc1 | 15 | 0 | 4062 | 12 | 10 | 7 | 51
COc1ccc(C(C)=O)cc1CSC(=N)N | 4 | -59 | 3416 | -1 | 5 | 10 | 5.4
O=C(Nc1ccc(Br)c(Br)c1)C1CCCO1 (stereo not given) | -6 | . | 5880 | -2 | -20 | 1 | 1.7
NC(N)=N/N=C/c1ccc(OCc2ccc(Cl)cc2)cc1 | -2 | -120 | 7602 | . | . | . | .
Cc1cccc(OCc2nnc(SC(C)C(=O)Nc3ccc(N4CCOCC4)cc3)o2)c1 (stereo not given) | . | 16 | 2997 | 7 | 2 | 5 | 1.7
Cc1ccc(OCCOCCNC(C)(C)C)c([N+](=O)[O-])c1 | 15 | 1 | 9744 | 2 | 4 | 7 | 2.5
COc1cccc(-c2nc(-c3ccc(NC(=O)c4cccs4)cc3)no2)c1 | 10 | -68 | 2738 | 4 | 8 | 9 | -13
Cc1ccc(NC(=O)CCN2C(=O)NC3(CCCC3)C2=O)c(C)c1 | . | . | . | 10 | -2 | 8 | 6.6
C=CCn1c(N)cc(=O)nc1SC(C)C(=O)Nc1cccc2ccccc12 (stereo not given) | . | -29 | 3048 | 18 | 8 | -4 | -7.6
Cn1c(=O)c2c(=O)cc(NNC(=O)C(C)(C)C)[nH]c2n(C)c1=O | -3 | -2 | ? | 5 | 9 | 6 | 1.0
Cc1ccc(N(CCC(=O)O)S(=O)(=O)c2cccc(C(F)(F)F)c2)cc1 | 3 | -5 | 4470 | 15 | -4 | 9 | 9.7
CCn1c(=O)c2cc(C(=O)NCCN3CCOCC3)sc2c2ccccc21 | 10 | -6 | 6015 | 5 | 10 | -7 | -3.9
CC(NC(=O)CNC(=O)c1ccccc1Br)c1cccs1 (stereo not given) | . | -14 | 4944 | -2 | -1 | 7 | -0.3
O=C(CCc1nnc(COc2ccccc2)o1)NC1(c2ccccc2)CC1 | -1 | -22 | 4997 | 0 | 4 | 12 | 4.1
O=C(c1cccs1)N1CCN(Cc2cn[nH]c2-c2ccc(F)cc2F)CC1 | 2 | -10 | 5996 | 4 | 10 | -2 | 1.4
CC(=NNC(=O)CC(C)C)c1ccc(Cl)c(Cl)c1 | . | . | . | 7 | 12 | -2 | -0.9
CCOC(=O)C(Cc1ccc(N)cc1)N1C(=O)c2ccccc2C1=O (stereo not given) | -2 | -22 | 4163 | -3 | 3 | -3 | 3.9
COc1ccc(CCNC(=O)Cn2cnc3c2c(=O)n(C)c(=O)n3C)cc1OC | 8 | -1 | 3897 | -1 | -1 | 5 | 0.5
COc1ccc(C2/C=C\CN(C(=O)OCC3c4ccccc4-c4ccccc43)CC(=O)N2Cc2cccc(F)c2)cc1 (stereo not given) | . | 19 | 3121 | -1 | 2 | -11 | 1.5
CC1CCN(S(=O)(=O)c2ccc(NC(=O)Cc3ccccc3)cc2)CC1 | -4 | -8 | 13238 | -2 | -10 | -6 | -0.2
CN(C)N=Cc1ccc([N+](=O)[O-])cc1[N+](=O)[O-] | . | . | . | 0 | 4 | 0 | 5.5
CCOc1ccc(C(=O)CCN2CCCCC2)cc1 | 3 | -20 | 2603 | 14 | 8 | -3 | -10
N/C(=N\NS(=O)(=O)c1ccccc1Cl)c1ccccn1 | 5 | -36 | 6028 | 0 | 6 | 6 | 3.9
O=C(CCc1ccccc1)Nc1cccc(NC(=O)CCc2ccccc2)c1 | -10 | . | 10030 | 2 | 4 | 2 | 1.0
